# Gal4-VP16 FLuc: Gal4-VP16 reporter inhibition counter-screen | Drosophila S2 Gal4-VP16 UAS-luciferase, luminescence, 20 h | Potency, µM (top dose mostly 53.6 µM), inactives show top-dose activity, negative = inhibition, actives largely listed as inhibitors | 310,000 tested, 3.5% active | AID 2546;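 note: Gal4-VP16 expression switched on by copper sulfate through the metallothionein promoter; % is set by controls: 0 for no effect and ±100 for the full control effect; nearly all actives have a fitted effect of over 50% in size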
# p53 reactivation: re-activators of mutant p53; H1299 p53-A138V BP100-luciferase reporter, luminescence, 24 h; Potency, µM (titrated, usually from 92.2 µM), for the others: at the highest dose activity change, positive = activation, usual class: activators; 320,000 tested, 0.063% active; note: % of control where 0% means no effect; nearly all actives have a fitted effect of over 45% in size
#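 H1299 (p53-null), stable ts p53-A138V + BP100-Luc; 1000 cells/well, Opti-MEM/10% FBS; cpd 4 pt, 1:5; 24 h, 37 deg C, 5% CO2; detection reagent 10 min RT; luminescence.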
# ELG1 genotoxic: induces genotoxicity in HEK293T cells with luciferase-tagged ELG1. AID 504466. HEK293T ELG1-luciferase reporter, luminescence, 16 h. 330,000 tested, 1.3% active. Potency, µM (titrated, usually from 46 µM), inactives show at the highest dose activity change, positive = activation, most hits filed as activators; note: % of control where 0% means no effect; nearly all actives have a fitted effect of over 60% in size
#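 Screening used a luciferase reporter fused to human ELG1 in HEK293T cells. Luminescence was read on a CCD plate imager after 16 hr exposure and 30 min ONE-Glo incubation.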
# NPC1 prom act: activates the NPC1 promoter | Huh7 NPC1 promoter luciferase reporter, 24 h | Potency, µM (top dose mostly 9.22 µM), inactives show at the highest dose activation, most hits filed as activators | 320,000 tested, 2.4% active | AID 485313;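 note: % of control where 0% means no effect; nearly all actives have a fitted effect of over 60% in size; reporter is driven by a mutant NPC1 promoter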
#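 Stably transfected Huh7 (NPC1 promoter→luciferase), 1500 cells/well in Opti-MEM + 10% FBS, 2 h settle, then compound 24 h at 37 °C. Luminescence after 10 min with Amplite reagent.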
# Rab9 prom act: activates the Rab9 promoter | Huh7 Rab9 promoter-luciferase reporter, luminescence, 24 h | Potency, µM (top dose mostly 9.22 µM), without a hit: at the highest dose activation, negative = inhibition, most hits filed as activators | 320,000 tested, 2.8% active | AID 485297; note: % of control where 0% means no effect; nearly all actives have a fitted effect of over 60% in size
#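 Promoter activation is measured as luciferase luminescence in Huh7 cells stably transfected with a Rab9 promoter–luciferase construct, following 24 h compound exposure at 37 °C and 10 min reagent incubation at ambient temperature.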
# uPA surface inh: inhibitors of cell surface uPA generation | Potency, µM (doses to about 38.3 µM), without a hit: at the top dose activity change, negative = inhibition, usual class: inhibitors | cell surface uPA generation assay, qHTS | AID 540303 | 330,000 tested, 0.31% active; active = well fitted inhibition curve with a large enough effect; inconclusive = small, poorly fitted or top-dose-only effect; inactive = no such curve, though single readings can be large or run the other way; tested in mouse RAW 264.7 cells; note: % is set by controls: 0 for no effect and ±100 for the full control effect; nearly all actives have a fitted effect of over 55% in size
# FLuc modulator: firefly luciferase modulation, counter-screen for miR-21 project; AID 588342; purified FLuc, Km substrates, luminescence inhibition; Potency, µM (series often up to 57.5 µM), inactives show top-dose activity change, negative = inhibition, usual class: inhibitors; 360,000 tested, 6.9% active; P08659;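 note: plate controls were vehicle for no effect and reference inhibitor for full effect; nearly all actives have a fitted effect of over 55% in size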
# Target sequence (P08659 whole entry, looked up): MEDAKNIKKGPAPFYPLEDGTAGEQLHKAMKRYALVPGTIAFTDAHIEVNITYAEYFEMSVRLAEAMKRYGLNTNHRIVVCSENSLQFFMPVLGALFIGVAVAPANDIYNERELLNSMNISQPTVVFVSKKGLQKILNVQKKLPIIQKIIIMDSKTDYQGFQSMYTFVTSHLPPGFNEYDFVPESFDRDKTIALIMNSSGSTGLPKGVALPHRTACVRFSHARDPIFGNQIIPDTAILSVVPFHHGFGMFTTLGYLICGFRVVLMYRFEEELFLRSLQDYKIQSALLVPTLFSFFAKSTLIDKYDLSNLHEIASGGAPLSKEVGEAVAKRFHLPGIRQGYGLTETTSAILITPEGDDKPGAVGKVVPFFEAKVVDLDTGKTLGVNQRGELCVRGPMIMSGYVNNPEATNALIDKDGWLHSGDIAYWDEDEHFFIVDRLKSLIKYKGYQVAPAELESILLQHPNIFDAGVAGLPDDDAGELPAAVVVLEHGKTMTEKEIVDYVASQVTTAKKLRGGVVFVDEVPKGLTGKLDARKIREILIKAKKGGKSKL
#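 Purified P. pyralis luciferase (10nM final) with 10uM D-luciferin and 10uM ATP (Km levels) in 50mM Tris acetate pH 7.5, 10mM Mg acetate, 0.01% Tween-20, 0.05% BSA; qHTS 6-point titration, ~60 µM downward; luminescence read.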
# MBNL1 CUG block: MBNL1-poly(CUG) RNA binding inhibition; 280,000 tested, 0.036% active; Potency, µM (highest dose often 57.5 µM), for the others: at the highest dose activity change, negative = inhibition, hits mostly inhibitors; AID 2675; TR-FRET MBNL1-His/biotin-(CUG)12 binding, 665/545 ratio; active = well fitted inhibition curve with a large enough effect in the signal ratio, with a control signal flat, not every such curve was filed as active; inconclusive = small, poorly fitted or top-dose-only effect, or effect the other way, or a change in a side signal; inactive = no such curve, though single readings can be large or run the other way; the % refers to the signal ratio; note: % is set by controls: 0 for no effect and ±100 for the full control effect
# Target sequence (Q9NR56 whole entry, looked up): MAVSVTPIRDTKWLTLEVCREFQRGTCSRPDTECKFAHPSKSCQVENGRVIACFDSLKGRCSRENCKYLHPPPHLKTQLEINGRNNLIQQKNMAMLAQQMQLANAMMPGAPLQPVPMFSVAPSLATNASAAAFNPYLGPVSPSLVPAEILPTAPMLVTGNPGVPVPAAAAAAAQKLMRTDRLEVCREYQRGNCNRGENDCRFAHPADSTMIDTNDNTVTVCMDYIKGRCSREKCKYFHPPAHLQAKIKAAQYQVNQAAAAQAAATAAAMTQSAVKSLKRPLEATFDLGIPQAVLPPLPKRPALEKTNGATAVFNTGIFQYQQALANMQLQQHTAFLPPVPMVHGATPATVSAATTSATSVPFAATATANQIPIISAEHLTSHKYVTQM
#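 TR-FRET readout: Ex 340 nm, 665/545 nm emission ratio, normalized to buffer-only (basal) and MBNL1-(CUG)12 controls. Complex of MBNL1-His with Biotin-(CUG)12, compounds 92 nM–58 uM, incubated 60 min at room temperature.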
# BRCA1 expr up: activators of BRCA1 expression. Potency, µM (top dose mostly 46.1 µM), without a hit: top-dose activation, usual class: activators. 380,000 tested, 1.1% active. MCF7-BRCA1-FFLuc reporter, luminescence, 48 h; response scale: scaled: vehicle 0%, 10 µM genistein 100%; note: nearly all actives have a fitted effect of over 80% in size; some results filed as inactive show a strong effect at the top dose
#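 MCF7 cells carrying a BRCA1-firefly luciferase reporter (2000 cells/well, phenol-red free MEM) were attached for 2 h at 37 °C, then given compounds for 48 h. Luminescence was read 15 min after luciferase reagent; activity normalized to genistein (10 microM) and DMSO.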
# MLL CXXC-DNA inh: MLL CXXC-DNA interaction inhibition; Potency, µM (highest dose often 115 µM), without a hit: top-dose activity change, negative = inhibition, most hits filed as inhibitors; 290,000 tested, 0.037% active; AID 2662; Q03164; MLL-CXXC / FITC-HOXA9 DNA fluorescence polarization; active = well fitted inhibition curve with a large enough effect in the polarisation, with a control signal flat, not every such curve was filed as active; inconclusive = small, poorly fitted or top-dose-only effect, or effect the other way, or a change in a side signal; inactive = no such curve, though single readings can be large or run the other way; the % refers to the polarisation
#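 Fluorescence polarization: 7 uM MLL-CXXC (stock) preincubated 5 min with compounds, then 50 nM fluorescein-HOX-A9 DNA (stock) added; 30 min ambient. Buffer 50 mM Tris-HCl pH 7.5, 50 mM NaCl, 1 mM DTT, 0.05% BSA.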
# * marks the source's active call; other numbers are inactive results; ? = inconclusive; nt = not tested or not shown; [ ] = remark or other dose. Unless noted, calls come from the whole dose curve; as a rule, active = well fitted curve in the direction sought with a large enough effect; inconclusive = small, poorly fitted or top-dose-only effect, or another doubt; inactive = no such curve, though single readings can be large; an effect the other way counts as inactive or inconclusive. Potency is the fitted concentration of half-maximal effect. These rows are one share of the data; the hit share may differ from the screen's.
# Second line of a record: Gal4-VP16 FLuc, MBNL1 CUG block, p53 reactivation, NPC1 prom act, MLL CXXC-DNA inh, Rab9 prom act, ELG1 genotoxic, uPA surface inh, FLuc modulator, BRCA1 expr up
> COc1ccc(Nc2ncc3c(n2)CC(c2ccc(OC)cc2)CC3=O)cc1 (stereo not given)
 : 20%, 0%, 1%, 3%, 29%, -5%, 0%, -3%, -2%, 21%
> CC[n+]1c(/C=C2/C=C(C)CC(C)(C)C2)sc2ccc(OC)cc21
 : -98%, 19%, -12%, -37%[inhibitor], -2%, -43%[inhibitor], -8%, -10%, -4%, -77%
> O=C(C(c1ccccc1)c1ccccc1)N1CCN(Cc2ccco2)CC1
 : 8%, -11%, 14%, 6%, -6%, -2%, -2%, 1%, -6%, 21%
> Cc1ccc(NC(=O)CNCc2ccccc2Cl)cc1S(=O)(=O)N(C)C
 : 6%, -2%, 10%, 10%, 3%, 17%, 8%, -3%, ?, 80%
> Cn1cc(/C=C/c2cc[n+](C)cc2)c2cc(F)ccc21
 : -12%, ?, 1%, -45%[inhibitor], ?, -30%[inhibitor][1.84 µM], -14%, -3%, -2%, -77%
> Cc1cc(C)nc(NNC2=CC(=[N+]3CCCCC3)CC(C)(C)C2)n1
 : -3%, -4%, -2%, 1%, 16%, 3%, -15%, 0%, 3%, 0%
> CC(c1ncncc1F)[C@](O)(Cn1cncn1)c1ccc(F)cc1F (stereo not given in full)
 : -7%, nt, nt, nt, 4%, nt, nt, nt, nt, nt
> c1ccc2c(c1)OCCOCCOc1ccccc1OCCOCCO2
 : -18%, -2%[11.5 µM], -4%, -10%, -1%, -6%, -10%, -4%, 2%, -21%
> CCOc1ccc(OCCN(C)Cc2ccccc2)cc1
 : 19%, 4%, 1%, -4%, 7%, 6%, 0%, 2%, -10%, 1%
> COc1ccc2c(/C=C/c3cc[n+](C)cc3)c[nH]c2c1
 : 4%, ?, 1%, -40%[inhibitor], ?, -49%[inhibitor], -8%, -2%, 2%, -70%
> COc1ccc2c(c1)[N+](C)(C)C(C)(C)C=C2C
 : -17%[10 µM], 6%, 4%, 2%, -3%, 1%, -8%, -7%, 4%, -11%
> CN(C)S(=O)(=O)c1cccc(CNCC2COc3ccccc3O2)c1 (stereo not given)
 : 22%, 6%, 0%, -4%, 1%, 0%, -4%, -16%, -2%, 14%
> COc1cc(CN2CCN(C(=O)c3cccc4ccccc34)CC2)cc(OC)c1O
 : 12%, -2%, nt, -5%, 8%, 3%, 0%, -5%, 0%, -11%
> CCOc1cc(N2CCOCC2)c(OCC)cc1NC(C)C(=O)N1CCN(CC)CC1 (stereo not given)
 : -1%, ?, -3%, 0%, 17%, 0%, -9%, -5%, -1%, -15%
> Cc1ccc(S(=O)(=O)N2CCN(CCc3ccccc3)CC2)c(C)c1
 : 3%, -1%, 7%, 5%, 16%, -2%, -7%, -4%, 3%, -29%
> CCOC(=O)c1c(-c2ccc(F)cc2)csc1NC(=O)CCN1CCOCC1
 : -14%, -13%, -24%, -2%, 8%, -2%, -4%, 12%, 5%, -12%
> CCOC(=O)c1c(-c2ccccc2)csc1NC(=O)C(C)NCc1ccco1 (stereo not given)
 : -89%, -1%, -7%, -2%, -5%, 2%, -3%, 8%, 2%, -69%
> COc1ccc(CN2CCN(S(=O)(=O)c3ccc(NC(C)=O)cc3)CC2)cc1
 : 4%, -8%, 3%, 0%, 1%, -13%, -5%, -1%, -1%, 7%
> CCCCOc1ccc(Br)cc1/C(C)=N/NC1=NCCN1
 : 0%, -6%, -4%, -26%, 0%, -18%, -1%, -13%, 8%, -90%[inhibitor]
> CCc1ccc(OCc2nnc(SCCN3CCOCC3)n2CC)cc1
 : -5%, 1%, -4%, 0%, 2%, 2%, 1%, 0%, 4%, -2%
> OCc1ccccc1OCCCN1CCC(Cc2ccccc2)CC1
 : -7%, 0%, -11%, 3%, 8%, -8%, -7%, -4%, 0%, 2%
> CN(CC(=O)Nc1ccccc1Oc1ccccc1)Cc1ccccc1F
 : -1%, -6%, -1%, -1%, -3%, -4%, -5%, -4%, 5%, -46%
> CC(C)(c1ccccc1)c1ccc(OCCCNCCO)cc1
 : -17%, -1%, -2%, -6%, -18%, -2%, 4%, 1%, 3%, -9%

# 2 successive compounds already listed, quoted:
# Second line of a record: Gal4-VP16 FLuc, MBNL1 CUG block, p53 reactivation, NPC1 prom act, MLL CXXC-DNA inh, Rab9 prom act, ELG1 genotoxic, uPA surface inh, FLuc modulator, BRCA1 expr up
> COc1ccc(Nc2ncc3c(n2)CC(c2ccc(OC)cc2)CC3=O)cc1 (stereo not given)
 : 20%, 0%, 1%, 3%, 29%, -5%, 0%, -3%, -2%, 21%
> CC[n+]1c(/C=C2/C=C(C)CC(C)(C)C2)sc2ccc(OC)cc21
 : -98%, 19%, -12%, -37%[inhibitor], -2%, -43%[inhibitor], -8%, -10%, -4%, -77%

# A stretch taken from the entries so far, as a working copy:
# Second line of a record: Gal4-VP16 FLuc, MBNL1 CUG block, p53 reactivation, NPC1 prom act, MLL CXXC-DNA inh, Rab9 prom act, ELG1 genotoxic, uPA surface inh, FLuc modulator, BRCA1 expr up
> COc1ccc(Nc2ncc3c(n2)CC(c2ccc(OC)cc2)CC3=O)cc1 (stereo not given)
 : 20%, 0%, 1%, 3%, 29%, -5%, 0%, -3%, -2%, 21%
> CC[n+]1c(/C=C2/C=C(C)CC(C)(C)C2)sc2ccc(OC)cc21
 : -98%, 19%, -12%, -37%[inhibitor], -2%, -43%[inhibitor], -8%, -10%, -4%, -77%
> O=C(C(c1ccccc1)c1ccccc1)N1CCN(Cc2ccco2)CC1
 : 8%, -11%, 14%, 6%, -6%, -2%, -2%, 1%, -6%, 21%
> Cc1ccc(NC(=O)CNCc2ccccc2Cl)cc1S(=O)(=O)N(C)C
 : 6%, -2%, 10%, 10%, 3%, 17%, 8%, -3%, ?, 80%
> Cn1cc(/C=C/c2cc[n+](C)cc2)c2cc(F)ccc21
 : -12%, ?, 1%, -45%[inhibitor], ?, -30%[inhibitor][1.84 µM], -14%, -3%, -2%, -77%
> Cc1cc(C)nc(NNC2=CC(=[N+]3CCCCC3)CC(C)(C)C2)n1
 : -3%, -4%, -2%, 1%, 16%, 3%, -15%, 0%, 3%, 0%
> CC(c1ncncc1F)[C@](O)(Cn1cncn1)c1ccc(F)cc1F (stereo not given in full)
 : -7%, nt, nt, nt, 4%, nt, nt, nt, nt, nt
> c1ccc2c(c1)OCCOCCOc1ccccc1OCCOCCO2
 : -18%, -2%[11.5 µM], -4%, -10%, -1%, -6%, -10%, -4%, 2%, -21%
> CCOc1ccc(OCCN(C)Cc2ccccc2)cc1
 : 19%, 4%, 1%, -4%, 7%, 6%, 0%, 2%, -10%, 1%
> COc1ccc2c(/C=C/c3cc[n+](C)cc3)c[nH]c2c1
 : 4%, ?, 1%, -40%[inhibitor], ?, -49%[inhibitor], -8%, -2%, 2%, -70%
> COc1ccc2c(c1)[N+](C)(C)C(C)(C)C=C2C
 : -17%[10 µM], 6%, 4%, 2%, -3%, 1%, -8%, -7%, 4%, -11%
> CN(C)S(=O)(=O)c1cccc(CNCC2COc3ccccc3O2)c1 (stereo not given)
 : 22%, 6%, 0%, -4%, 1%, 0%, -4%, -16%, -2%, 14%

# Screening results deposited in PubChem by National Center for Advancing Translational Sciences (NCATS).
